MgrA DNA FP: S. aureus MgrA-DNA binding modulation. fluorescence polarization. inhibition, %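 (about 10 µg/mL by stock and volumes)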. hit rate 0.13% among 84,000;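 active means above 50% in either of two replicates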;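 further: 0% = protein plus DNA without compound and 100% = DNA alone without protein; higher means less MgrA bound to DNA so lower polarization; one replicate is shown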
S aureus helic: S. aureus DNA helicase inhibition; purified S. aureus helicase, fluorescence unwinding assay; about half of the hits fall short of the stated cut; inhibition, %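 (tested at about 80 µM)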; hit rate 0.05% among 120,000; AID 485395;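 active means both duplicates at 50% or more, or one of them with a favoured structure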;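 further: 0% = mean of negative control wells and 100% = mean of positive control wells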
Active calls of the source: *; · = not tested or not shown. A portion of the library. The share of hits here may be higher or lower than overall.

Order of values – MgrA DNA FP, S aureus helic
O=C(/C=C/c1ccco1)Nc1ccc2nc3n(c(=O)c2c1)CCCC3
 : -4.4, 10.0
O=C1CC(C(=O)Nc2nccs2)C(c2ccccc2)O1 (stereo not drawn)
 : ·, 4.0
O=C(COC(=O)c1cccc(S(=O)(=O)N2CCCC2)c1)c1ccccc1
 : ·, 15.0
CCc1nc(C)cn1S(=O)(=O)c1cc(OC)ccc1OC
 : -0.9, 14.0
O=C(c1cc(NS(=O)(=O)c2ccccc2)ccn1)N1CCCCC1
 : ·, -22.0
Cc1cc(C(=O)N2CCN(c3ccc(C(F)(F)F)cn3)CC2)c(C)o1
 : -3.2, ·
O=C(c1cccs1)N1CCN(S(=O)(=O)/C=C/c2ccccc2)CC1
 : ·, 19.0
C=CCN(C(=O)C1CC=CCC1)c1ccccc1 (stereo not drawn)
 : 4.7, 10.0
CCN(CC)C(=O)Oc1ccc2c(C(F)(F)F)cc(=O)oc2c1
 : -2.5, ·
Cc1ccccc1Nc1nc(N)nc(COC(=O)[C@@H](NC(=O)c2ccco2)C(C)C)n1
 : ·, -4.0
CC(C)CCNC(=O)C1C2C(=O)N(Cc3ccccc3)CC23C=CC1(C)O3 (stereo not drawn)
 : 0.3, 0.0
C=CCn1c(=S)[nH]c2sc3c(c2c1=O)CC(C)(C)OC3
 : 0.4, 3.0
O=C(C1Cc2ccccc2CN1S(=O)(=O)c1cccs1)N1CCOCC1 (stereo not drawn)
 : ·, -30.0
Cc1ccc(NC(=O)/C(C#N)=C\Nc2cccc(O)c2)cc1
 : ·, 5.0
O=C1/C(=C/c2ccccc2)CC/C1=C1/NCCN1C1CC(=O)N(c2cccc(F)c2)C1=O (stereo not drawn)
 : ·, 13.0
CS(=O)(=O)n1nc(-c2cccnc2)nc1NCc1ccccc1
 : ·, 6.0
CC1CC(C)CN(C(=O)c2ccccc2NS(=O)(=O)c2ccc(F)cc2)C1 (stereo not drawn)
 : -1.5, 1.0
N#CCn1c(COC(=O)C23CC4CC(CC(O)(C4)C2)C3)nc2ccccc2c1=O
 : ·, -20.0
CNc1nc(-c2cccs2)cc(C(F)(F)F)n1
 : 4.6, 12.0
Cc1ccc(NC(C)C(=O)N/N=C/c2ccco2)cc1 (stereo not drawn)
 : ·, -21.0
Cc1ccc(NC2=CC(=O)CC(c3ccc(Cl)cc3)C2)cc1 (stereo not drawn)
 : -0.8, -2.0
CC1(C)C(=O)OC(/C=C\c2ccccc2)C(C)(C)C1=O (stereo not drawn)
 : 0.8, -9.0
CC1CC(=O)Nc2ccccc2N1C(=O)c1ccc(F)cc1F (stereo not drawn)
 : ·, -4.0
O=C(Nc1ccc2c(c1)OCO2)c1cncc(NS(=O)(=O)c2ccccc2)c1
 : 6.6, -2.0
O=C(CSC1=NCCCN1)N1CCCCC1
 : -8.2, 14.0
COC(=O)c1sc(S(C)=O)c(-c2ccon2)c1C (stereo not drawn)
 : ·, -2.0
C=CCc1ccccc1OCc1ccc(C(=O)O)cc1
 : 2.3, 16.0
CC(C)C(Nc1ccccc1)N1C(=O)CCC1=O (stereo not drawn)
 : -4.0, 3.0
Nc1c(C(=O)N2CCCCC2)sc2nc3c(cc12)CCC3
 : 0.8, 14.0
c1ccc2sc(-c3ccc4c(c3)OCCO4)nc2c1
 : ·, -11.0
CCSc1cc(C)c(C#N)c2nc3ccccc3n12
 : -1.6, 17.0
CC1Oc2ccccc2OC1C(=O)Nc1ccccc1 (stereo not drawn)
 : -0.8, 2.0
O=[N+]([O-])c1ccc(N2CCCN(C(=S)Nc3ccc(F)cc3Br)CC2)nc1
 : 0.7, ·
CC1CCCC(C)N1CC(C)(C)NS(=O)(=O)c1ccccc1 (stereo not drawn)
 : -2.9, -20.0
N#CSCC(=O)c1ccc(Cl)c(Cl)c1
 : -7.0, ·
CC(C)C(NC(=O)c1ccccc1)C(=O)NCc1ccccn1 (stereo not drawn)
 : ·, 0.0
Nn1c(SCc2ccccc2Cl)nnc(CCC(=O)O)c1=O
 : ·, 10.0
COc1ccccc1CNC(=O)C1COc2ccccc2O1 (stereo not drawn)
 : -2.8, 9.0
CCOC(=O)N1C/C(=C\c2ccccc2)C(=O)/C(=C/c2ccccc2)C1
 : -2.6, 1.0
CSc1nc2ccccc2c(=O)n1CC1CCCCC1
 : ·, 14.0

Sorted by the number under MgrA DNA FP (lowest first): 4 from the list above
Order of values – MgrA DNA FP, S aureus helic
CC1CCCC(C)N1CC(C)(C)NS(=O)(=O)c1ccccc1 (stereo not drawn)
 : -2.9, -20.0
CCSc1cc(C)c(C#N)c2nc3ccccc3n12
 : -1.6, 17.0
C=CCn1c(=S)[nH]c2sc3c(c2c1=O)CC(C)(C)OC3
 : 0.4, 3.0
O=C(Nc1ccc2c(c1)OCO2)c1cncc(NS(=O)(=O)c2ccccc2)c1
 : 6.6, -2.0

The list goes on.
Order of values – MgrA DNA FP, S aureus helic
COCCNC(=O)c1ccc2c(c1)sc1nc(-c3ccccc3)cn12
 : ·, 39.0
O=C(Nc1ncn[nH]1)c1ccco1
 : ·, 5.0
CC1(c2ccccc2)OC(=O)C(=Cc2ccc(O)cc2)C(=O)O1 (stereo not drawn)
 : ·, -3.0
O=C(O)CC(C1CC=CCC1)N1Cc2ccccc2C1=O (stereo not drawn)
 : -3.2, ·
COc1cc2c(cc1NC(=O)Cc1ccccc1)oc1ccccc12
 : 2.7, 5.0
COc1cc(OC)cc(C(=O)Nc2ncn[nH]2)c1
 : -1.6, 18.0
COc1ccc(C2CC(C(F)(F)F)n3nc(C(=O)N4CCN(Cc5ccccc5)CC4)cc3N2)cc1 (stereo not drawn)
 : -2.0, ·
CCOC(=O)Cn1c(=O)oc2cc(S(=O)(=O)NCCOC)ccc21
 : ·, -13.0
Cc1ccc(C(CC(=O)O)c2ccccc2)c(O)c1 (stereo not drawn)
 : 2.3, 4.0
COC(=O)c1ccc2c(=O)n(CCCCCC(=O)NC3CCCCC3)c(=O)[nH]c2c1
 : ·, 14.0
CN1CCN(C(=O)/C=C/c2cccs2)CC1
 : ·, 10.0
COc1ccc(C2CC(c3c(-c4ccccc4)c4cc(Br)ccc4[nH]c3=O)=NN2C(C)=O)c(OC)c1 (stereo not drawn)
 : -1.6, ·
O=C(Nc1nc2ccccc2[nH]1)Nc1ccccc1F
 : ·, 26.0
O=C(c1cn(-c2ccccc2)nc1-c1cccc(Cl)c1)N1CCOCC1
 : 1.2, -6.0
N#C/C(=C\c1ccc(Cl)cc1)c1nc(-c2cc3cc(Br)ccc3oc2=O)cs1
 : 2.3, ·
Cn1c(=O)c2c(nc(NCc3ccccc3)n2Cc2ccc(Br)cc2)n(C)c1=O
 : -0.2, ·
Cc1nc2cc(-c3ccccc3)nn2c(C)c1CC(=O)NCc1ccccc1
 : 0.1, 13.0
COC(=O)Cn1ncc(N2CC(C)OC(C)C2)c(Cl)c1=O (stereo not drawn)
 : ·, -5.0
CC(C)NC(=O)c1cc(C(=O)c2cc(Br)ccc2O)coc1=N
 : ·, -21.0
O=C(COC(=O)c1ccc(NC(=O)c2ccc(Cl)cc2)cc1)c1ccccc1
 : -2.5, -1.0
O=C(O)c1ccc(CSc2nnnn2C2CCCCC2)cc1
 : 0.9, 16.0
COc1ccc2ncc(C(=O)NC3CCCC3)c(Cl)c2c1
 : -4.1, 7.0
Cc1cc(C)nc(SCC(=O)NC2=NC(=O)C(C)S2)n1 (stereo not drawn)
 : -0.3, -6.0
COc1cc(C2N(C(C)=O)N=C(NC(C)=O)N2C(C)=O)cc(OC)c1OC (stereo not drawn)
 : ·, -9.0
Cc1cc(C(F)(F)F)c(C#N)c(SCC(=O)C(C)(C)C)n1
 : 2.0, -20.0
Fc1ccc(C2Nc3ccc(Br)cc3C3C=CCC32)cc1 (stereo not drawn)
 : -2.2, ·
O=C(CSc1ccc(-c2ccncc2)nn1)NCCc1ccccc1
 : 0.6, 1.0
COC(=O)c1ccc2c3c(cccc13)CC2
 : 0.3, 2.0
Cc1ccc(NC(=O)c2ccc(Br)o2)cc1C
 : -7.9, ·
O=C(COc1ccccc1)N=Nc1c(O)[nH]c2ccccc12
 : 0.1, 10.0
COc1cc(NC(=O)c2ccc(Br)o2)c(C(=O)O)cc1OC
 : 3.9, 7.0
O=C(Cn1cc(/C=N/n2cnnc2)c2ccccc21)Nc1ccc2c(c1)OCO2
 : 1.5, 3.0
CNC(C)c1ccco1 (stereo not drawn)
 : 2.0, -14.0
CCc1c(C#N)c(N)nc(SCC#N)c1C#N
 : ·, -5.0
Fc1ccccc1OCCBr
 : -0.6, 16.0
Nc1ccc(N2CCCC2)cc1
 : 56.8*, 21.0
Cc1sc2nc(SC/C=C/c3ccccc3)nc(N)c2c1C
 : 1.1, 6.0
FC(F)(F)c1cc(-c2nc(CSc3ncccn3)no2)cc(C(F)(F)F)c1
 : 2.5, ·
COC(=O)c1ccccc1NC(=O)c1ccc(NC(=O)c2ccco2)cc1
 : 1.6, 5.0
Cc1ccc(N(C)S(=O)(=O)c2ccc(-c3cc(C(F)(F)F)no3)s2)cc1
 : ·, -7.0
Cc1cc(C(=O)COc2ccc(-c3nnco3)cc2)c(C)n1-c1ccc2c(c1)OCCO2
 : ·, 16.0
CSC1=NC2(C)CCCCC2c2c1ccc1ccccc21 (stereo not drawn)
 : -3.1, -5.0
Fc1ccccc1OCCCCSc1ncccn1
 : 1.8, 6.0
CC(=O)c1ccc(C#CC(C)(C)O)s1
 : 0.5, ·
CCc1cccc(NC(=S)N(CCC(C)C)C(C)c2cccs2)c1 (stereo not drawn)
 : 0.2, 9.0
O=C(COC(=O)c1ccc2ccccc2n1)NC(c1ccccc1)c1ccccc1
 : -1.8, -29.0
O=S(=O)(c1ccccc1)c1nnn2c1nc(Nc1ccccc1)c1sccc12
 : -1.9, 4.0
COc1ccccc1NC(=O)COc1ccc(Oc2ccccc2)cc1
 : 1.7, -20.0
O=C(COc1ccc(Nc2ccccc2)cc1)OCC(=O)N1CCCCC1
 : ·, 3.0
COc1ccc(C2c3sc(=O)[nH]c3SCC2/C=N/NC(N)=S)cc1 (stereo not drawn)
 : ·, 12.0
CC1CCN(C(=O)c2cccc3c2-c2ccccc2C3=O)CC1
 : ·, 27.0
C=CCOn1c(=O)c(-c2ccc(OC)c(OC)c2)[n+]([O-])c2ccccc21
 : 3.8, -7.0
CCOc1ccc2ccccc2c1CNc1nnnn1CC
 : -2.4, 11.0
Nc1cccc(Cl)c1O
 : 1.4, 10.0
CCC(=O)c1cc(Cl)cc(Cl)c1O
 : -1.0, 8.0
Cc1nc(SCC(=O)N2c3ccccc3CCc3ccccc32)n[nH]1
 : 18.2, 0.0
COc1cccc(CNc2nc3ccccc3n2CCN2CCOCC2)c1OC
 : -1.4, 16.0
Cc1nc(CC(=O)OCc2nnc(-c3c(-c4ccccc4)noc3C)o2)cs1
 : ·, 5.0
Cc1noc(C)c1CN1CCC(c2nc3ccccc3s2)CC1
 : ·, -8.0
O=C(CSc1nc2ccccc2o1)OCc1ccccc1
 : 0.0, -17.0

Reformatted field by field: two of the compounds above.
structure: O=C(COc1ccc(Nc2ccccc2)cc1)OCC(=O)N1CCCCC1
  MgrA DNA FP: ·
  S aureus helic: 3.0
structure: CC1CCN(C(=O)c2cccc3c2-c2ccccc2C3=O)CC1
  MgrA DNA FP: ·
  S aureus helic: 27.0

Additional structures follow:
Order of values – MgrA DNA FP, S aureus helic
CCSc1nc2ccccc2s1
 : -1.5, -22.0
COc1cccc(CN2COc3ccc4c(C)cc(=O)oc4c3C2)c1
 : ·, 4.0
COC(=O)C1C(=O)C2=C(CC1C)NC(=O)CC2c1cccc(C)c1 (stereo not drawn)
 : ·, -1.0
Nn1cnc2sccc2c1=O
 : ·, -9.0
COC(=O)Cc1c(C)c2ccc(OCC(=O)N(C)C)c(C)c2oc1=O
 : -0.9, -8.0
OC(c1ccccc1)(c1ccccc1)C(F)(F)F
 : 1.6, 21.0
CC(Nc1ccc(Oc2ccccc2)cc1)C(=O)N1CCCC1 (stereo not drawn)
 : ·, -12.0
N#CCNC(=O)C(Sc1ccccc1)c1ccccc1 (stereo not drawn)
 : -0.5, 4.0
Cc1ccc(C(=O)Nc2nc3ccccc3n2CCN2CCOCC2)cc1
 : -0.1, ·
O=C(O)CSCc1cccc2ccccc12
 : -0.2, ·
Cc1cc(-c2ccccc2)[nH]c(=O)c1S(=O)(=O)c1ccccc1
 : 0.1, ·
CCC(CC)C(=O)NCCc1cc2c(C)ccc(C)c2[nH]c1=O
 : ·, -17.0
COc1ccccc1C1=NC(c2ccccc2)CN1c1ccccc1 (stereo not drawn)
 : -1.8, 9.0
CCOC(=O)c1nnn2c3ccccc3c(=O)n(Cc3ccc(Cl)cc3)c12
 : 1.2, ·
COC(=O)C(C)n1cnc2scc(-c3ccc(OC)cc3)c2c1=O (stereo not drawn)
 : -2.2, 11.0
O=S(=O)(NC1CCCC1)c1ccc(S(=O)(=O)N2CCN(c3ncccn3)CC2)cc1
 : ·, -15.0
CCN(c1ccccc1)C1SC(=O)N(c2ccccc2)C1=O (stereo not drawn)
 : -0.8, 16.0
O=C(Nc1cccnc1)c1ccc2c(c1)[nH]c(=O)n2CCc1ccccc1
 : -0.2, -8.0
Cc1ccc(S(=O)(=O)N2CCCCC2)cc1-n1c(C)ccc1C
 : -1.8, 11.0
Cc1cc(OCC(=O)Nc2ccc3c(c2)OCO3)c2ccccc2n1
 : -0.8, ·

Entries above marked active in MgrA DNA FP.
Order of values – MgrA DNA FP, S aureus helic
Nc1ccc(N2CCCC2)cc1
 : 56.8*, 21.0

New compounds follow:
Order of values – MgrA DNA FP, S aureus helic
S=c1[nH]nc(C2(c3ccccc3)CCCC2)o1
 : 0.4, 7.0
CN(C)S(=O)(=O)c1ccc(C(=O)OCC(=O)C(C)(C)C)cc1
 : ·, 7.0
O=C(Nc1ncc(Cc2cc(Cl)ccc2Cl)s1)C1CCCO1 (stereo not drawn)
 : ·, -3.0
C/C(=C/c1cccc2ccccc12)[N+](=O)[O-]
 : -7.3, ·
Cc1ccc(Cl)c(Nc2ccccc2C(=O)O)c1Cl
 : 1.1, ·
c1coc(CCC2=NCCn3cccc32)c1
 : 0.0, 5.0
O=C(NCCN1CCCCCC1)c1ccc2c(c1)ncn2C1CCCCC1
 : 4.3, 15.0
CC1Sc2ccc(C(=O)N(C)Cc3cccnc3)cc2NC1=O (stereo not drawn)
 : ·, 8.0
CC(C)(C)NC(=O)CN1CCN(C(=S)Nc2ccccc2F)CC1
 : ·, -1.0
